Screening results: PubChem, Johns Hopkins Ion Channel Center
KCNQ2 inh: KCNQ2 potassium channel inhibitors, primary screen, cell-based, CHO-K1, FluxOR thallium flux, B-score (AID 2156) | 20 min; hits give low values; only compounds with negative scores are shown here; some inactives read as strong as hits | B-score at 10 µM | Potassium voltage-gated channel subfamily KQT member 2 (Rattus norvegicus), O88943 | 310,000 compounds, 1.1% hits;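 active means fluorescence ratio B-score at most minus 3 library SDs, with starting brightness B-score within 2 library SDs, cut at about -5.5 in these data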
Target sequence (O88943 whole entry, looked up): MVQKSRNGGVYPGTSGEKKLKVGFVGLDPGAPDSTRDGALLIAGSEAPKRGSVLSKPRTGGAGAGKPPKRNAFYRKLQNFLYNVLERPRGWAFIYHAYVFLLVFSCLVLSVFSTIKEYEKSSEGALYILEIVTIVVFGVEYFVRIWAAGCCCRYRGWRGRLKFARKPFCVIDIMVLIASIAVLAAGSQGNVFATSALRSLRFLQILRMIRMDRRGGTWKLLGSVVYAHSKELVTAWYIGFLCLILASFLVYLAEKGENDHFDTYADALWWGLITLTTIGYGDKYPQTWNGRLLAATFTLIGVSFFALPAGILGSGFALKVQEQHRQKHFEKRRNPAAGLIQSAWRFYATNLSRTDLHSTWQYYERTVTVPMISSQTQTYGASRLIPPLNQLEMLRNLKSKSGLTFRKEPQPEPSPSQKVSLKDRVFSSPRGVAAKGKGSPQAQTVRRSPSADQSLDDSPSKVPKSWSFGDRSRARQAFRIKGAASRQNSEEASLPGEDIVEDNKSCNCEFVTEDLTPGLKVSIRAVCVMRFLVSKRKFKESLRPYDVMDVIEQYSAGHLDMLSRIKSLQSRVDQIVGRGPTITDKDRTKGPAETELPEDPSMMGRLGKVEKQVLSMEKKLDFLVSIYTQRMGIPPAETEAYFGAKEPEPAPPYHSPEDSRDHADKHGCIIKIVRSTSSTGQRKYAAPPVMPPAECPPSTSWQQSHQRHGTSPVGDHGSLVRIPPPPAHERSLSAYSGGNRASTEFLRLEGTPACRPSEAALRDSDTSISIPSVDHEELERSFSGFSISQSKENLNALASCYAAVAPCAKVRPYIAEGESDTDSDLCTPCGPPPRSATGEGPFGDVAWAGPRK
KCNQ2 inh baseline: second read-out of KCNQ2 inh, no call of its own (marks repeat the call); B-score; measured here: initial fluorescence intensity artifact check;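 brightness before thallium and not channel activity; 0 = typical well and far values either way flag optical interference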
Active calls of the source: *; i = inactive; & = joins results of further samples. This is a subset, so the mix of outcomes need not match the whole.

Start of the data: the first three compounds as a preview:
The line under a structure holds: KCNQ2 inh	KCNQ2 inh baseline
> O=C(Nc1cccc(NC(=O)c2cccs2)c1)c1ccc2c(c1)OCCO2
  i	0.51
> CCCC[C@H]1COCCS(=O)(=O)N1Cc1ccc(Br)cc1
  i	-0.08
> Cn1cc(S(=O)(=O)Nc2cccc(F)c2)c(=O)n(C)c1=O
  i	0.43

The list itself, repeating the preview:
The line under a structure holds: KCNQ2 inh	KCNQ2 inh baseline
> O=C(Nc1cccc(NC(=O)c2cccs2)c1)c1ccc2c(c1)OCCO2
  i	0.51
> CCCC[C@H]1COCCS(=O)(=O)N1Cc1ccc(Br)cc1
  i	-0.08
> Cn1cc(S(=O)(=O)Nc2cccc(F)c2)c(=O)n(C)c1=O
  i	0.43
> O=C1c2ccccc2C(Nc2ccc3c(c2)OCCO3)N1Cc1ccc2c(c1)OCO2 (stereo not drawn)
  i	0.76
> COc1ccc(C(=O)Cn2nnc(-c3ccccc3NC(=O)C(F)(F)F)n2)cc1
  i	-1.84
> CCOC(=O)c1cnc2ccc(OC)cc2c1Nc1ccc2c(c1)OCCO2
  i	-0.68
> CC(C)(C)C(=O)CNS(=O)(=O)c1ccc(S(=O)(=O)NC2CC2)cc1
  i	0.02
> C#CCn1c(=NC(=O)c2ccc(S(=O)(=O)N3CCCc4ccccc43)cc2)sc2cc(S(N)(=O)=O)ccc21
  i	0.61
> O=C(CCCN1CCC(O)(c2ccc(Cl)cc2)CC1)c1ccc(F)cc1
  i	-1.76&-0.81
> CCC(c1nnnn1C(C)(C)C)N1CCN(c2cc(Cl)ccc2C)CC1 (stereo not drawn)
  i	0.63
> Cc1ccc(S(=O)(=O)N/N=C\c2cc([N+](=O)[O-])ccc2Cl)cc1
  i	-0.08
> Cc1nc(NC(=S)NC(=O)c2cncc(Br)c2)ccc1Br
  i	-0.03
> COCCN1CCn2c(nc3cc(NC(=O)Cn4nc(C)c5ccccc5c4=O)ccc32)C1
  i	0.44
> CCCCn1c(=O)[nH]c(=O)c2c1nc(COc1ccc(C#N)cc1)n2CCC
  i	0.42
> CC(C)(Oc1ccc(Cl)cc1)C(=O)NC1CCCCC1
  i	0.02
> COc1ccc(OC)c(C(c2nnnn2Cc2ccco2)N2CCN(C)CC2)c1 (stereo not drawn)
  i	-0.42
> O=C(/C=C/c1ccc(OC2CSC2)cc1)c1ccc(Cl)cc1
  i	0.7
> COc1ccc2cc(C)c3nnc(SCC(=O)Nc4nc(-c5ccccc5)cs4)n3c2c1
  i	-0.52
> O=C1N(Cc2cccnc2)C[C@@H]2C[C@@H](c3ccc(C(F)(F)F)cc3)N3CCC[C@@]123
  i	1.76
> Cc1c(Br)ccc(NC(=O)COc2ccccc2C(N)=O)c1C
  i	-0.53
> CCOc1cc(/C=N\NC(=O)OC)ccc1OC(=O)c1ccco1
  i	-0.42
> CN(CC(=O)NC1CCCCCC1)S(=O)(=O)c1cnc[nH]1
  i	0.45
> CCOc1ccccc1N=CC1=C(O)CC(c2ccccc2)CC1=O (stereo not drawn)
  i	-0.05
> COc1ccccc1C(=O)Nc1ccccc1N1CCN(S(C)(=O)=O)CC1
  i	3.65
> CC(=O)c1cccc(NC(=O)N2CCC(c3nnc(SCC(N)=O)n3C)CC2)c1
  i	-0.74
> COc1ccc(C)cc1-n1c(=O)c2ccccc2c2ccccc2c1=O
  i	1.3
> Cc1cccc(N2C(=O)C(O)=C(C(=O)c3cccs3)C2c2ccccc2)n1 (stereo not drawn)
  i	0.06
> CC(C)CCNC(=O)c1cc(-c2ccco2)nc2ccccc12
  i	-0.08
> CC1(C)Cc2c(sc3nc(SCC(=O)NCc4ccco4)n(-c4ccccc4)c(=O)c23)CS1
  i	1.25
> O=C(Nc1ccc(OC(F)F)c(Cl)c1)c1cccc(OC(F)F)c1
  i	-0.87
> CC(OC(=O)c1ccc2ncsc2c1)C(=O)NC1CCCCC1C (stereo not drawn)
  i	0.75
> Cc1ccc(CNC(=S)Nc2ccc(C)c([N+](=O)[O-])c2)cc1
  i	-0.59
> CCc1ccc(S(=O)(=O)Nc2ccc(-c3ccc4nncn4n3)cc2)s1
  i	-0.77
> CCOc1cc(/C=N/NC(=O)OC)ccc1OCCSc1ccc(Cl)cc1
  i	-1.44
> COC(=O)c1sc2cc(C(F)(F)F)cnc2c1-c1ccccn1
  i	-0.74
> O=C(Nc1ccc(F)cc1)OCCOc1ccc(Br)cc1
  i	1.87
> COc1ccc(N=c2oc3cc(O)ccc3cc2C(=O)Nc2ccccn2)cc1OC
  i	-0.73
> COC(=O)CCC(=O)NC(=S)Nc1ccc(S(=O)(=O)Nc2cc(OC)nc(OC)n2)cc1
  -6.38*	-0.93*
> O=C1C=C(c2cc3ccccc3s2)CCC1
  i	0.64
> CC(=O)NC(C)c1ccc(Cl)c(Cl)c1 (stereo not drawn)
  i	-1.69
> Cc1nnc(SCc2ccccc2)[nH]c1=O
  i	-0.8
> CC(C)c1ccc(N(C(=O)CNC(=O)c2ccco2)C(C(=O)NC2CCCC2)c2cccnc2)cc1 (stereo not drawn)
  i	0.05
> O=C(O)C1=C[C@@H](c2ccc(F)cc2)C[C@@H](OCCCCO)O1
  i	-0.07
> CCCCn1nnnc1NCc1ccc(C)cc1
  i	-0.4
> CCn1c(SCC(=O)N2CCCCC2)nnc1-c1ccc(S(=O)(=O)N2CCN(C)CC2)cc1
  i	0.96
> CCOc1ccc(OCc2ccc(C(=O)NN)o2)cc1
  i	-0.83
> O=C(c1cccc(S(=O)(=O)N2CCCCC2)c1)N1CCOCC1
  i	-1.35
> CCC1C(C#N)=C(SC)NC2=C1C(=O)CC(C)(C)C2 (stereo not drawn)
  i	-1.1
> O=C(Cn1nc(CNc2ccc(Cl)cc2)[n+]2c1CCCCC2)c1ccccc1
  i	0.53
> O=C(NCc1ccccc1)N1CCN(c2ccccc2F)CC1
  i	-1.15
> CCC1C(=O)NCCN1C(=O)c1ccc(OC)c(OC2CCN(C(C)=O)CC2)c1 (stereo not drawn)
  i	-0.89
> c1cc2c(cc1-n1cnnn1)OCO2
  i	1.24
> Cc1c(C)n(C(=O)CN2CCN(c3ccccc3)CC2)c2ccccc12
  -7.82*	-0.77*
> O=C(Cn1cnc2ccccc2c1=O)Nc1nnc(SCc2ccccc2)s1
  i	0.35
> CC(=O)N(Cc1ccc(Br)cc1)c1cccc(C)c1C
  -6.49*	1.49*
> CN(CCc1ccccn1)c1ccc([N+](=O)[O-])cn1
  i	0.73
> CCCN1CNC(=S)N(c2ccc(C)cc2C)C1
  i	-0.44
> Cc1cc(NC(=O)CSC2=NCCS2)no1
  i	1.17
> O=C(Nc1cccnc1)c1scc2c1OCCO2
  i	0.06
> COc1cc(OC)cc(C(=O)NCC(=O)OCC(=O)c2cc(C)n(Cc3ccco3)c2C)c1
  i	-0.12

Next records follow:
The line under a structure holds: KCNQ2 inh	KCNQ2 inh baseline
> O=C(CSCc1c(Cl)cccc1Cl)Nc1ccc2c(c1)OCCO2
  i	-2
> c1ccc(CNC2=NCCCCC2)cc1
  i	-0.01
> O=C1/C(=C/c2cccnc2)CC/C1=C\c1cccnc1
  i	-1.95
> CCNC(=O)CC1C(=O)N(c2ccc(C)cc2)C(=O)N1CCc1ccc(OC)c(OC)c1 (stereo not drawn)
  i	0.02
> COc1ccc(N2CCN(C(=O)Cc3ccc(-n4c(=O)[nH]c5ccccc5c4=O)cc3)CC2)cc1
  i	-0.58
> O=C(Cn1c(CN2CCCCC2)nc2ccccc2c1=O)NC1CCCCC1
  i	-0.1
> O=C(Oc1ccc(Br)cc1C(=S)N1CCOCC1)c1ccc([N+](=O)[O-])cc1[N+](=O)[O-]
  i	-0.21
> Cc1cccc(NC(=O)CSc2cccc3cccnc23)c1C
  i	-2.2
> OCCNNC(=S)NC1CC2C=CC1C2 (stereo not drawn)
  i	-0.08
> O=S(=O)(NCCC(c1ccc(F)cc1)c1ccco1)c1ccccc1 (stereo not drawn)
  i	-0.41
> COCCCNC(=O)c1c[nH]c2ccc(S(=O)(=O)N3CCC(C)CC3)cc2c1=O
  i	1.28
> O=C(O)c1ccccc1-n1cccc1C(=O)O
  i	0.71
> Cc1ccc(CNC(=O)c2ccc(N(C)S(=O)(=O)c3ccccc3)cc2)cc1
  i	0.2
> O=C(CN1C(=O)C2CCCCC2C1=O)OCC(=O)c1ccc(Cl)s1 (stereo not drawn)
  i	-0.43
> COc1ccc(Nc2nc(N3CCCCC3)nc(N3CCCCC3)n2)c(OC)c1
  i	-0.49
> O=C(O)CN=C(NS(=O)(=O)c1ccc(Cl)cc1)c1ccccc1
  i	1.58
> Cc1cccc(C)c1OC1(c2ccccc2)OC(=O)c2ccccc21 (stereo not drawn)
  -8.6*	-0.72*
> C/C(=N/NC(=O)c1ccoc1C)c1ccc(NC(=O)C2CCCC2)cc1
  i	-0.3
> O=C(OCc1cccnc1)C1=Cc2ccccc2OC1
  i	-0.8
> Cc1ccc(NC(=O)c2ccccc2Cl)c(Cl)c1
  i	1.36
> Clc1ccc(Cn2ncc3c(NCc4ccco4)ncnc32)c(Cl)c1
  i	-0.06
> CN(C)CCCOC(=O)c1sc2ccccc2c1Cl
  i	-1.03
> Cc1nnc(N2CCCC(C(=O)NCc3ccc(OC(C)C)cc3)C2)c2nn(-c3ccccc3)c(C)c12 (stereo not drawn)
  i	0.82
> Cc1cccc(C)c1NC(=O)CN(C)C(=O)c1ccccc1OCc1ccc(F)cc1
  i	-0.33
> COc1ccc(CNC(=O)Cc2ccc(OC)c(S(=O)(=O)N3CCOCC3)c2)cc1
  i	2.08
> NC(=O)C1CCN(C(=O)C2CCC(=O)N(Cc3ccc(Cl)cc3)C2)CC1 (stereo not drawn)
  i	-0.23
> Cc1ccc(C(=O)NCC(=O)O)s1
  i	-0.15
> Clc1ccc(Cn2ncc3c(NCc4ccccc4)ncnc32)c(Cl)c1
  i	1.68
> CC(c1cccs1)N(Cc1ccco1)C(=O)Nc1ccc(Cl)c(Cl)c1 (stereo not drawn)
  -12.7*	-0.2*
> CCNC(=O)n1cc(-n2cncn2)c(-c2ccccc2)n1
  i	1.38

Sorted by value in KCNQ2 inh (smallest number first): some entries from above
Compound	KCNQ2 inh	KCNQ2 inh baseline
CC(c1cccs1)N(Cc1ccco1)C(=O)Nc1ccc(Cl)c(Cl)c1 (stereo not drawn)	-12.7*	-0.2*
Cc1cccc(C)c1OC1(c2ccccc2)OC(=O)c2ccccc21 (stereo not drawn)	-8.6*	-0.72*
COC(=O)CCC(=O)NC(=S)Nc1ccc(S(=O)(=O)Nc2cc(OC)nc(OC)n2)cc1	-6.38*	-0.93*

The listing continues:
The line under a structure holds: KCNQ2 inh	KCNQ2 inh baseline
> COC1Cc2ccccc2N(C(N)=O)c2ccccc21 (stereo not drawn)
  i	0.97
> COc1ccc(CN(C)Cc2c(O)ccc3cc(Br)ccc23)cc1OC
  i	1.01
> CC(=O)N/C(=C\c1ccc(F)cc1)C(=O)NC(C(=O)O)C(C)C (stereo not drawn)
  i	-0.92
> CC(=O)N1N=C(N)SC1c1cccc([N+](=O)[O-])c1 (stereo not drawn)
  i	0.14
> C(=C\c1ccccc1)/C=N/Nc1nc2ccccc2[nH]1
  i	1.01
> CCOc1ccc(/C=C/C(=O)c2ccc(-c3ccccc3)cc2)cc1
  i	5.97
> Cc1ccc(NC(=O)C2(S(=O)(=O)c3ccc(C)cc3)CC2)cc1
  i	0.99
> O=C(COC(=O)c1ccc(S(=O)(=O)Nc2ccccc2)cc1)NCCC1=CCCCC1
  i	0.1
> CC(NC(=O)c1ccc(S(C)(=O)=O)cc1)c1cccc2ccccc12 (stereo not drawn)
  i	-0.82
> CC(=O)Nc1ccc(NC(=O)CSc2ncc(C(=O)Nc3ccc(F)cc3)c(=O)n2C)cc1
  i	1.14
> N#Cc1ccc2ccn(CC(=O)NC3CCCCC3)c2c1
  i	0.45
> COc1ccccc1-c1nnc(SCC(=O)N2CCOCC2)n1-c1ccccc1
  i	-0.29
> Cc1ccnc(N2CCC(C(=O)Nc3ccc4c(c3)OCO4)CC2)n1
  i	0.04
> COc1ccc(S(=O)(=O)Nc2ccc3ccccc3c2)cc1C
  i	-0.59
> CCC1Nc2ncnc(N3CCN(c4ccccc4)CC3)c2N(Cc2ccc(C)cc2)C1=O (stereo not drawn)
  i	-2.9
> Cc1ccc(NC(=O)CN(C)C(=O)c2ccc(-n3cncn3)c([N+](=O)[O-])c2)cc1
  i	-0.23
> CCn1c(SCc2nc3ccccc3[nH]2)nnc1-c1ccccc1OC
  i	-0.51
> O=C1C(=O)N(CCN2CCOCC2)C(c2ccccn2)/C1=C(/O)c1ccc(F)cc1 (stereo not drawn)
  i	0.05
> N#Cc1c(NC(=O)COC(=O)C2CC3C=CC2C3)oc(-c2ccccc2)c1-c1ccccc1 (stereo not drawn)
  i	-1.55
> CCSc1cnn(-c2ccccc2)c(=O)c1SCC
  i	-1.05
> CC(=O)Nc1cc[n+](CC(=O)c2ccc(Cl)cc2)cc1
  i	-1.44
> O=C(N/N=C/c1ccc(Cl)cc1)c1n[nH]c2c1CCCC2
  i	-0.05
> O=C(NCc1cccs1)C1CCCN1C(=O)Nc1cccc(Cl)c1 (stereo not drawn)
  i	0.97
> Cc1ccc(C)c(NC(=O)Nn2cnnc2)c1
  i	3.72
> CC1CC(C)CN(CCCNC(=O)CN2C(=O)c3cccnc3Oc3ccccc32)C1 (stereo not drawn)
  i	-0.39
> O=C(Nc1ccccc1)C1C2/C=C\CCCCC21 (stereo not drawn)
  i	0.49
> COc1ccc(/C=N/NC(=O)c2cc(-c3cccc(C)c3)nc3ccccc23)cc1O
  i	-1.63
> COc1ccccc1/C=C/c1nc(S(=O)(=O)c2ccccc2)c(N2CCC(C(N)=O)CC2)o1
  i	-0.22
> CC(C)COC(=O)N1CCCC1C(=O)Nc1nccs1 (stereo not drawn)
  i	-0.94
> COc1ccc(C(=O)COC(=O)CN2C(=O)C3C4CCC(C4)C3C2=O)cc1 (stereo not drawn)
  i	-0.02
